HNF4A DNA FP: change in binding of human HNF4 alpha to DNA. P41235. HNF4a-FITC DNA binding, fluorescence polarization, 1 h. activity change, % at 10 µM. 360,000 tested, 0.3% active; in the data active = activity change above about 30%, passing the limit was not always enough;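 also: controls were the assay level and a saturating level of protein; the project sought stronger binding though the title names inhibitors; some compounds called inactive have numbers as strong as hits; positive values seem to mean higher polarization but the record does not say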
Target sequence (P41235 whole entry, looked up): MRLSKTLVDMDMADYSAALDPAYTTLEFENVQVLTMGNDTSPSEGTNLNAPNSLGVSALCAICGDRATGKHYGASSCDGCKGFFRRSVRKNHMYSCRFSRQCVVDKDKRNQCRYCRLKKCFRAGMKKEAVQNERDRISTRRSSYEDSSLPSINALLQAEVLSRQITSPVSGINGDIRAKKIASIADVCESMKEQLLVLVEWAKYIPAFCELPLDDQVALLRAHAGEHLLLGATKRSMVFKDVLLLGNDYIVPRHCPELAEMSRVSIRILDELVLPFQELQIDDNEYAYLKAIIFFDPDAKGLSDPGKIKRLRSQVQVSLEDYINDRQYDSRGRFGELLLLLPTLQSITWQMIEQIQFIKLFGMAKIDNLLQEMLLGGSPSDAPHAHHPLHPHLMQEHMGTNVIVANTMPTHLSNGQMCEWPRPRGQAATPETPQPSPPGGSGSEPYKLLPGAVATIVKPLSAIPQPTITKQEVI
FGF22 binding: shifts melting point of recombinant human FGF22. Q9HCT0. recombinant FGF22 thermal shift, SYPRO orange fluorescence; percent of sucrose octasulfate shift, DMSO zero. calls only at 9.99 µM. 340,000 tested, 1.5% active. AID 651658;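 active = melting point raised past a set limit in the mean and every replicate; three in four hits are not shown here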
Target sequence (Q9HCT0 whole entry, looked up): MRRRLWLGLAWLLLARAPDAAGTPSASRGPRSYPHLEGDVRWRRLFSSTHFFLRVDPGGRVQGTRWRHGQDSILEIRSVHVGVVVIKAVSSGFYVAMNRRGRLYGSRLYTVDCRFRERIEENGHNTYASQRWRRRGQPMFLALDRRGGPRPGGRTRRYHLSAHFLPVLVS
Starred values were filed as active, the others as inactive; i = inactive. An excerpt; count on the stated rates, not on these rows.

SMILES	HNF4A DNA FP	FGF22 binding
COC(=O)[C@@]1(Cc2ccc(F)cc2)[C@H]2c3cc(C(=O)N4CCCC4)n(Cc4cc(F)cc5c4OCOC5)c3C[C@H]2CN1C(=O)c1ccccc1	0.5	i
CCc1nc2c(OCC3CCCCC3)cccn2c1N(C)C(=O)c1ccc(OC)cc1	4.5	i
Cc1cccc(C)c1NC(=O)C(c1ccccc1OC(F)(F)F)N1CCN(C)CC1 (stereo unspecified)	-1.9	i
COc1cc2ccnc(C=NO)c2cc1OC	1.7	i
COc1ccc(-c2ccc(CN3C(C(C)C)C(=O)N(Cc4cn(CC5CCCCC5)nn4)CCS3(=O)=O)cc2)cc1 (stereo unspecified)	-1.1	i
CC1(C(=O)NCc2ccccc2)CN(S(C)(=O)=O)CC(=O)N1CCc1ccc(O)cc1 (stereo unspecified)	-1.0	i
O=C(Nc1cccnc1)C1Cc2c(-c3ccc4c(c3)OCO4)ccnc2O1 (stereo unspecified)	3.0	i
CCOC(=O)/C=C/C(=O)Nc1ccc(S(=O)(=O)Nc2cc(OC)nc(OC)n2)cc1	-0.7	i
CC(=O)CC1N(S(=O)(=O)c2ccc(C)cc2)c2ccccc2N1S(=O)(=O)c1ccc(C)cc1	5.3	i
OC(c1ccc2c(c1)OCO2)c1ncc(-c2ccccc2)[nH]1 (stereo unspecified)	0.5	i
CC(O)(c1ccc(F)c(F)c1)c1nc(-c2cccc(C(F)(F)F)c2)cs1 (stereo unspecified)	-5.2	i
CCN(CC)C(=O)C1=C(C)N(Cc2ccc(F)cc2)C(=O)C(CC(=O)NCc2cccs2)C1 (stereo unspecified)	0.1	i
CCC(C)c1ccc(S(=O)(=O)N2CCN(C(=O)CN3C(=O)NC(C)(C4CC4)C3=O)CC2)cc1 (stereo unspecified)	-0.4	i
CC1=C(C(=O)N(C)C)CC(CC(=O)NCCN2CCOCC2)C(=O)N1Cc1ccc(F)cc1 (stereo unspecified)	-1.4	i
NC(=O)CSc1nnc(-c2cccc(S(=O)(=O)N3CCOCC3)c2)o1	0.5	i
O=C(NCc1ccccc1)c1cc(C2CCCCN2C(=O)c2ccccc2)on1 (stereo unspecified)	1.2	i
CCCCn1nnnc1C(c1ccccc1)N1CCN(Cc2c(F)cccc2Cl)CC1 (stereo unspecified)	-3.2	i
CCOc1cc(OCC)cc(C(=O)N2CCC[C@H]2C(=O)N2CCC[C@H]2C(=O)NCc2ccc(F)cc2F)c1	-0.2	i
Cc1ccc(NC(=O)CN(C)CC(=O)Nc2ccc3c(c2)OCO3)cc1	-2.3	i
O=C(NCc1ccc(F)cc1)c1cc(C2CCCN(C(=O)C3CCCCC3)C2)on1 (stereo unspecified)	4.4	i
Cc1cccc(NC(=O)CN(C)C(=O)Cc2ccc(-c3ccccc3)cc2)c1C	3.2	i
COc1cccc(-c2nc3nc(C)cc(C)n3c2Nc2c(C)cccc2C)c1	53*	i
CCNC(=O)C1CCCN(C(=O)c2cc(F)cc(F)c2)CC1 (stereo unspecified)	-2.7	i
CC1(C(=O)Nc2ccc(F)cc2F)CCN1C(=O)CCC1CCCC1 (stereo unspecified)	-1.1	i
C[C@@H]1CCCCO[C@@H](CN(C)C(=O)c2ccncc2)[C@@H](C)CN([C@H](C)CO)C(=O)c2cc(N(C)C)ccc2O1	1.9	i
CC(C)CC1C(=O)N(Cc2cn(CCC3OCCO3)nn2)CCS(=O)(=O)N1Cc1ccc(-c2ccc(F)cc2)cc1 (stereo unspecified)	-5.2	i
C[C@@H]1CCCCO[C@H](CN(C)Cc2ccc3c(c2)OCO3)[C@H](C)CN([C@@H](C)CO)C(=O)c2cc(NC(=O)c3ccccc3)ccc2O1	0.4	i
CC(C)NC(=O)C1(C)CCN1C(=O)c1cccn1C (stereo unspecified)	-3.2	i
CCc1nc2ccc(C(=O)NCc3ccc4c(c3)OCO4)cn2c1N(CC)CCN(C)C	0.9	i
COC(=O)C1=CN(c2ccc(C(C)(C)C)cc2)C(N)=C(C#N)C1c1cccc2ccccc12 (stereo unspecified)	1.4	i
CCc1nc2c(OCCc3cccc(OC)c3)cccn2c1N(C=O)Cc1ccc(OC)cc1	4.2	i
Cc1ccc(OCC(=O)Nc2ccncc2)cc1C	0.5	i
CCCCCCCCN1C(=O)[C@H](CC(=O)NCc2cccs2)C[C@@]2(C(=O)OC)CCCCC=C12	-4.3	i
O=C(Nc1cccc(C(F)(F)F)c1)c1ccc2sc([C@H]3C[C@H](O)[C@@H](CO)O3)nc2c1	-9.3	i
O=C([C@H]1O[C@@H](n2ccc(=O)[nH]c2=O)[C@H](O)[C@@H]1O)N(CCC1=CCCCC1)CC1CC1	-2.4	i
OC[C@@H]1CN(Cc2ccncc2)C[C@H](n2cnc3c(NC4CCCC4)ncnc32)O1	-1.8	i
O=C(CN1C(=O)NC2(CCCCCC2)C1=O)Nc1ccc(OC(F)(F)F)cc1	1.2	i
Cc1cccc(C)c1NC(=O)C(c1cccc(F)c1)N1CCN(C)CC1 (stereo unspecified)	1.3	i
C[C@H](CO)N1C[C@H](C)[C@@H](CN(C)CC2CC2)OCc2cnnn2CCCC1=O	0.5	i
CCCCCNC(=O)C(CCc1ccccc1)n1c(=O)c(-c2ccccc2)nc2ccccc21 (stereo unspecified)	1.7	i
C[C@H](CO)N1C[C@H](C)[C@H](CN(C)S(=O)(=O)c2ccc(C#N)cc2)OCc2cnnn2CCCC1=O	-4.1	i
CCCCCCN1C[C@H](n2cc(C3CC3)nn2)[C@@H](O)C[C@@H]1c1ccc(OC)cc1	1.5	i
CN(C)c1ccc(Sc2ccc3nc(N)nc(N)c3c2)cc1	1.2	i
Cc1ccc(C(=O)N2CCCc3ccccc32)c(Cl)c1	-3.1	i
CCCCNC(=O)C[C@@H]1C[C@@]2(C(=O)OCC)CCC=C2N(Cc2cccc3ccccc23)C1=O	0.1	i
Cc1cccc(C)c1NC(=O)C(c1ccccc1)N1CCN(c2ccc(F)cc2)CC1 (stereo unspecified)	2.9	i
COC(=O)CC1C(=O)NCCN1C(=O)c1oc2c(C)c(C)ccc2c1C (stereo unspecified)	0.4	i
C[C@H](CO)N1C[C@H](C)[C@H](CN(C)C(=O)c2ccccc2)OCc2ccccc2-c2c(n(C)c3ccccc23)C1=O	5.0	i
CCCS(=O)(=O)NC(=O)C1(C)CCN(C(=O)c2ccc(C#N)cc2)C1 (stereo unspecified)	0.6	i
Cc1noc(C)c1Cn1c(C)c(C(=O)NCc2ccc3c(c2)OCCO3)sc1=O	0.6	i

13 entries from above, bar-delimited.
compound | HNF4A DNA FP | FGF22 binding
Cc1cccc(C)c1NC(=O)C(c1cccc(F)c1)N1CCN(C)CC1 (stereo unspecified) | 1.3 | i
C[C@H](CO)N1C[C@H](C)[C@@H](CN(C)CC2CC2)OCc2cnnn2CCCC1=O | 0.5 | i
CCCCCNC(=O)C(CCc1ccccc1)n1c(=O)c(-c2ccccc2)nc2ccccc21 (stereo unspecified) | 1.7 | i
C[C@H](CO)N1C[C@H](C)[C@H](CN(C)S(=O)(=O)c2ccc(C#N)cc2)OCc2cnnn2CCCC1=O | -4.1 | i
CCCCCCN1C[C@H](n2cc(C3CC3)nn2)[C@@H](O)C[C@@H]1c1ccc(OC)cc1 | 1.5 | i
CN(C)c1ccc(Sc2ccc3nc(N)nc(N)c3c2)cc1 | 1.2 | i
Cc1ccc(C(=O)N2CCCc3ccccc32)c(Cl)c1 | -3.1 | i
CCCCNC(=O)C[C@@H]1C[C@@]2(C(=O)OCC)CCC=C2N(Cc2cccc3ccccc23)C1=O | 0.1 | i
Cc1cccc(C)c1NC(=O)C(c1ccccc1)N1CCN(c2ccc(F)cc2)CC1 (stereo unspecified) | 2.9 | i
COC(=O)CC1C(=O)NCCN1C(=O)c1oc2c(C)c(C)ccc2c1C (stereo unspecified) | 0.4 | i
C[C@H](CO)N1C[C@H](C)[C@H](CN(C)C(=O)c2ccccc2)OCc2ccccc2-c2c(n(C)c3ccccc23)C1=O | 5.0 | i
CCCS(=O)(=O)NC(=O)C1(C)CCN(C(=O)c2ccc(C#N)cc2)C1 (stereo unspecified) | 0.6 | i
Cc1noc(C)c1Cn1c(C)c(C(=O)NCc2ccc3c(c2)OCCO3)sc1=O | 0.6 | i

Next compounds:
SMILES	HNF4A DNA FP	FGF22 binding
CC1(C(=O)Nc2ccc(F)cc2F)CCN1C(=O)Cc1ccccc1 (stereo unspecified)	0.8	i
CCc1nc2c(OCc3ccc(Cl)cc3Cl)cccn2c1N(C)C(=O)C(C)C	0.3	i
COc1cccc(CN(C)C(=O)c2cccc(S(=O)(=O)N3CCN(c4ccccc4)CC3)c2)c1	-4.3	i
CCCCN(C(=O)CCOc1ccc(OCC)cc1)c1c(N)n(Cc2ccccc2)c(=O)[nH]c1=O	1.4	i
CCc1nc2c(OCc3ccc(Cl)cc3)cccn2c1N(C)C(=O)c1ccccc1F	0.3	i
Clc1ccc(-c2nc3ccc(Br)cn3c2Cc2ccsc2)cc1	2.0	i
C#CCN(Cc1ccco1)C(=O)c1cc(COc2cccc3cccnc23)on1	0.8	i
CC(C)C1C(=O)N(Cc2cn(CC3CCCCC3)nn2)CCS(=O)(=O)N1Cc1ccc(-c2ccncc2)cc1 (stereo unspecified)	-3.4	i
CS(=O)(=O)c1ccc(-c2cnc3c(NC=O)cc(-c4ccsc4)cn23)cc1	10	i
Cc1sc(NC(=O)C2CC(=O)N(Cc3ccco3)C2)nc1-c1ccccc1 (stereo unspecified)	1.9	i
COc1cccc(-c2ccc(CN3C(C(C)C)C(=O)N(Cc4cn(CCC5OCCO5)nn4)CCS3(=O)=O)cc2)c1OC (stereo unspecified)	-0.9	i
O=C1[C@H]2[C@@H](c3ccc(C(F)(F)F)cc3)N[C@]3(CCCN(Cc4ccc(Br)cc4)C3=O)[C@H]2C(=O)N1Cc1ccccc1	-1.5	i
O=C(NCc1cc(Cl)cc(Cl)c1)c1ccc2nc([C@@H]3O[C@H](CO)[C@@H](O)[C@H]3O)[nH]c2c1	3.7	i
CCc1nc2c(OCc3ccccc3C(=O)OC)cccn2c1N(C)C(=O)CC(C)C	0.6	i
CNc1ccc(-c2cccc(C(C)=O)c2)cn1	0.0	i
O=C(C[n+]1ccc(C(=O)c2ccccc2)cc1)Nc1cccc([N+](=O)[O-])c1	2.9	i
Cc1cccc(C)c1NC(=O)C1c2ccccc2OCC(=O)N1CCc1c[nH]c2ccccc12 (stereo unspecified)	-4.9	i
Cc1nc2c(OCc3ccc(Cl)cc3)cccn2c1N(C)Cc1cccs1	-4.8	i
CCc1nc2c(OCc3ccccc3)cccn2c1N(C)C(=O)c1ccc2c(c1)OCO2	3.2	i
COc1ccc(Cc2c(-c3ccc(C)cc3)nc3cc(C)c(Br)c(C)n23)c(C)c1	-0.6	i
CCc1nc2c(OCC(=O)c3ccc(Cl)cc3Cl)cccn2c1N(C)C(=O)COc1ccccc1	1.1	i
O=C1NC[C@H](CCCCN2C[C@H](Cc3ccc(O)cc3)N(CCc3ccccc3)C(=O)C2=O)N(CCc2ccccc2)C1=O	0.1	i
COc1ncc(-c2ccc(N3C(c4ccsc4)=Cc4ccc(F)cc4C3CC(C)=O)cc2)cn1 (stereo unspecified)	2.0	i
COc1ccc(-c2cc(NC(C)=O)c3ncc(-c4cccc(C(F)(F)F)c4)n3c2)c(OC)c1	5.5	i
Cc1cnc(-c2nc3ccccc3n2C(C(=O)NC(C)(C)C)c2cc3ccccc3o2)cn1 (stereo unspecified)	3.4	i
O=C(COc1ccc(Br)cc1)OCC(=O)c1ccc[nH]1	-1.2	i
CN(C)c1cccc(NC(=O)C2(C)Cc3c(-c4cccnc4)ccnc3O2)c1 (stereo unspecified)	0.4	i
Nc1ccn([C@@H]2O[C@H](C(=O)N3CCSC3)[C@@H](O)[C@H]2O)c(=O)n1	-4.5	i
COCOc1ccc(-c2ncc(OCCN3CCCC3=O)nc2NC(=O)c2cc3ccccc3s2)cc1	1.3	i
O=C(Nc1ccccc1)C1Cc2c(-c3ccco3)ccnc2O1 (stereo unspecified)	-1.8	i
C[C@@H]1CN([C@H](C)CO)C(=O)CCCn2nncc2CO[C@@H]1CN(C)S(=O)(=O)c1ccc(F)cc1	-3.4	i
Cn1c(=O)ccc2ccccc21	3.1	i
Cc1ccc(CN2CC(N3CCN(Cc4cccc(C)c4)CC3)CS2(=O)=O)cc1 (stereo unspecified)	-0.7	i
Cc1nnc(SCC(=O)NC2(C#N)CCCCC2)n1N	-0.6	i
Cc1ccccc1S(=O)(=O)N(C)C[C@H]1OCc2cnnn2CCCC(=O)N([C@@H](C)CO)C[C@H]1C	-0.6	i
COc1ccc(NC(=O)C2Cc3c(-c4ccc5c(c4)OCO5)ccnc3O2)cn1 (stereo unspecified)	0.5	i
CCCC1NC(=O)c2cccnc2-n2c1nc1ccc(Br)cc1c2=O (stereo unspecified)	-0.1	i
CC(C)(O)C1=C[N+](=O)CC=C1	0.7	i
COc1ccc(NC(=O)N(C)C[C@@H]2OCc3cn(nn3)CCCC(=O)N([C@H](C)CO)C[C@H]2C)cc1	2.0	i
Cc1c(C(=O)NCc2ccccc2)sc(=O)n1Cc1ccccc1F	-1.4	i
Cc1ccccc1N(CC(=O)N1CCN(Cc2ccccc2)CC1)S(C)(=O)=O	-0.9	i
Cc1cc(Cl)ccc1-c1nc(NCCN(C)C)nc2ccsc12	1.7	i
O=C(c1ccccc1)N(CCCl)C(=O)N(CCCl)C(=O)c1ccccc1	-0.4	i
Cc1ccc(CCC(=O)Nc2ccc(Cl)cc2Cl)o1	0.5	i
OC(c1ccc(F)cc1)c1nc(-c2cncnc2)cs1 (stereo unspecified)	-1.5	i
COc1ccc(S(=O)(=O)N(C)C[C@H]2Oc3ncc(C#CC4(O)CCCC4)cc3C(=O)N([C@@H](C)CO)C[C@@H]2C)cc1	-2.8	i
COc1ccc(OC)c(NC(=O)C2(C)CCN2Cc2ccc(OC)c3ccccc23)c1 (stereo unspecified)	4.8	i
C#CCNC(=O)C[C@@H]1C[C@@]2(C(=O)OCC)CCC=C2N(CCC2=CCCCC2)C1=O	-0.4	i
COc1ccccc1-c1cnc(C(O)c2ccc(SC)cc2)[nH]1 (stereo unspecified)	1.7	i

Screening results (PubChem BioAssay)
